# AF4-AF9 inh: inhibitors of AF4 peptide binding to AF9, primary screen, biochemical, AlphaScreen, biotin-AF4 peptide, FLAG-AF9, single point. inhibition, % at 10 µM. actives 0.47% (n = 350,000). Protein AF-9 (Homo sapiens), P42568;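 active = every replicate reaching a set inhibition limit, whatever the replicate mean, cut at about 25% in these data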;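 also: 0% = plate neutral control median and 100% = total signal loss; the record names both 10 and 1 µM as test concentration; the first replicate is given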
# Target sequence (P42568 whole entry, looked up): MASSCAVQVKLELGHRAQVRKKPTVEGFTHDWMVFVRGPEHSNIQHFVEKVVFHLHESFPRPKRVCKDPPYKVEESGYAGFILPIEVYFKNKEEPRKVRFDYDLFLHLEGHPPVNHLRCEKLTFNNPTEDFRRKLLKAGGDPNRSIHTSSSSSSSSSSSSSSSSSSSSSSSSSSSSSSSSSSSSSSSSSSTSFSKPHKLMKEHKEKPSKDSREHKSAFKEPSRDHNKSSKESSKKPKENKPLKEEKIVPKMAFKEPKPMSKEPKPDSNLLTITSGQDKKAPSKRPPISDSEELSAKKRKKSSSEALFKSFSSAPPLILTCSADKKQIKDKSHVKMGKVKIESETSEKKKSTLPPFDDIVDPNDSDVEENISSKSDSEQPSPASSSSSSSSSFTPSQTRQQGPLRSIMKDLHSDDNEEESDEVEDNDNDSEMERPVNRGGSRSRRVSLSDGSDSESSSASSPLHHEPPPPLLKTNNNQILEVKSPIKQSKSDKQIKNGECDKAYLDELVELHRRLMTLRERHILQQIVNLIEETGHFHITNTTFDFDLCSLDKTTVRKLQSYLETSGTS
# UCH37 DUB inh: inhibitors of human UCH37 deubiquitinase, primary screen, biochemical, Ub-AMC cleavage, fluorescence. inhibition, % (no concentration beside the values). actives 0.33% (n = 330,000). AID 588478, 2011. purified proteasome/UCH37;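 active = mean of two replicates above 20%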;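 also: 0% = compound-free wells with enzyme and 100% = wells lacking proteasome; stock transfer was 100 nL into about 20 µL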
# Target sequence (Q9Y5K5 whole entry, looked up): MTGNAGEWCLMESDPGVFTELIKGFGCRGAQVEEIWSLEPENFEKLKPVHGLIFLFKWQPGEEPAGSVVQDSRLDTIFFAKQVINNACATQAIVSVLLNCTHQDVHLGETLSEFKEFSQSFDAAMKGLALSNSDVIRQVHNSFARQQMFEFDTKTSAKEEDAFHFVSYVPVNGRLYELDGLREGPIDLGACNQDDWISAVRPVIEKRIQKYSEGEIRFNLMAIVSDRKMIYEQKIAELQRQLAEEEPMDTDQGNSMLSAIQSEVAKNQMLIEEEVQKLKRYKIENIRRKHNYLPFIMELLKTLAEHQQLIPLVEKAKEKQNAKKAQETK
#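 Material: Human UCH37 enzyme supplied as purified proteasome complex | Schedule: 30 min compound-proteasome preincubation then 25 min substrate reaction, room temperature | Detection: AMC fluorescence from Ub-AMC cleavage, excitation 355 nm, emission 460 nm | Benchmarks: Wells without proteasome as full block, compound-free enzyme plus substrate as uninhibited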
# Ecoli rRNA inh: reduced GFP signal of wild-type E. coli, primary screen, bacterial rRNA inhibitor project, GFP/RFP fluorescence, OD600, single point; E. coli WT GFP vs humanized-ribosome RFP mutants, 24 h; hits give low values; DMSO median 0, no signal -100; GFP signal change (wild-type ribosome), % (test concentration not listed); actives 1.6% (n = 350,000); AID 720706, 2013;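 active = significant combined selectivity score with lowered wild-type GFP, culture density cut under 30%, mutant RFP and density less affected; inactive = any of these conditions unmet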; also: one replicate is shown; some compounds called inactive have numbers as strong as hits
# Bfl-1 A1 inh: caspase 3/7 activation in MEF A1-2A-BIM cells, primary screen, A1 inhibitor project, cell-based, luminescence, HTS; Caspase-Glo 3/7 luminescence, 3 h; percent of clofoctol response, vehicle zero; caspase activation, % (concentration not given with the values); actives 0.066% (n = 330,000); AID 2462, 2010;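 active = over half of replicate activation scores above 10%, or exactly half above 10 with the replicate mean above 10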;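 also: wells of about 30 µL received 50 nL stock; many hits fall short of the cut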
# T cruzi inh: inhibitors of intracellular T. cruzi growth, primary screen, luminescence, NIH3T3 host cells | T. cruzi beta-gal in NIH3T3, 90 h | inhibition, % (concentration not given with the values) | actives 1.4% (n = 300,000) | AID 1885, 2009;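 active = mean inhibition across valid replicates above about 55%, limit read from the data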;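 also: signal also drops with host cell toxicity which is not excluded here; 0% = plate median of DMSO wells and 100% = zero luminescence signal; higher percent means less beta-gal luminescence so fewer parasites; stock transfer was 50 nL into about 50 µL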
# FGF22 binding: binders of human FGF22 protein, primary screen, FGF22 synaptogenesis inhibitor project, biophysical, thermal shift, single point; Fibroblast growth factor 22 (Homo sapiens), Q9HCT0; AID 651658, 2012; actives 1.5% (n = 340,000); recombinant FGF22 thermal shift, SYPRO orange fluorescence; percent of sucrose octasulfate shift, DMSO zero; calls only at 9.99 µM;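 active = melting point raised past a set limit in the mean and every replicate; three in four hits are not shown here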
# Beta cell apopt: inhibitors of cytokine-induced beta cell apoptosis, primary screen, luminescence; protection from apoptosis, % (test concentration not listed); actives 0.8% (n = 300,000); INS-1E cytokine-induced death, ATP luminescence, 48 h; percent of positive-control rescue, neutral wells zero; AID 435005, 2010;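 active = all replicates at 75% or more, or half of them and the mean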;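 also: 0% = cytokine-treated negative control wells and 100% = positive control rescue; higher means more ATP so stronger rescue from cytokine killing; wells of about 40 µL received 100 nL stock; the first replicate is given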
# E coli growth: E. coli growth inhibition, primary screen, OD600. actives 0.21% (n = 330,000). Escherichia coli growth, 23 h; hits give low values. AID 1053175, 2014. OD600 absorbance (no concentration beside the values);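 active = OD600 absorbance below the run mean of sample wells minus 3.6 SD, in any replicate, cut at about 0.56 in these data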;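 also: stock transfer was 300 nL into about 60 µL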
# Ecoli rRNA inh OD600: further read-out of Ecoli rRNA inh, marked with its call; OD600 change, %; measured here: OD600 growth;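 optical density of the mix in the first replicate; 0 = DMSO median and -100 = no signal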
# Ecoli rRNA inh RFP: further read-out of Ecoli rRNA inh, marked with its call; RFP signal change, %; measured here: RFP humanized mutant strains;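 first replicate; 0 = DMSO median and -100 = no signal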
# The depositor's hits bear a star; i = inactive; · = not tested or not shown; & = joins results of further samples. Not all compounds are listed; rates above refer to the full screens.
[1] Cc1ccc(NC(=O)C(=O)NCCN2CCN(S(=O)(=O)c3ccccc3)CC2)cc1C
[2] O=C(NCCCn1ccnc1)c1cccc(S(=O)(=O)N2CCCCCC2)c1
[3] CCCCOc1ccc(C(=O)Nc2ccc(N3CCN(C(=O)C(C)C)CC3)cc2)cc1
[4] CS(=O)(=O)N(Cc1ccc(C(=O)NCCSc2ccccn2)cc1)c1ccccc1
[5] CCC/C(=C1/c2ccccc2C(=O)N1c1ccccc1)c1ccc2[nH]ccc2c1
[6] O=c1[nH]c2ccc(Cl)cc2[nH]1
[7] CC1CCCC(NC(=O)C2CCCN2S(=O)(=O)c2cccc3nsnc23)C1C (stereo not given)
[8] NC(=O)[C@H]1CC2(CC(c3cccc(NC(=O)COc4ccc(Cl)cc4)c3)=NO2)CN1C(=O)c1ccccc1C(=O)c1ccccc1 (stereo not given in full)
[9] CN(C)CCCNC(=O)c1cc(S(=O)(=O)N2CCOCC2)ccc1F
[10] CC(=O)NCCn1c(SCC(=O)NCC2CCCO2)nc2ccccc2c1=O (stereo not given)

Compound,1,2,3,4,5,6,7,8,9,10
AF4-AF9 inh,-0.4,·,·,·,13,-68,-5.9,3.1,·,·
UCH37 DUB inh,2.3,2.3,-9.7,4.0,-4.1,1.2,4.0,5.4,-2.0,4.0
Ecoli rRNA inh,5,·,·,·,-20,11,4,0,·,·
Ecoli rRNA inh OD600,2,·,·,·,-23,14,11,1,·,·
Ecoli rRNA inh RFP,-2.2,·,·,·,22,0.9,-4.2,5.6,·,·
Bfl-1 A1 inh,0.7,0.1,0.7,0.3,0.0,·,-0.2,-1.2,0.8,-0.4
T cruzi inh,8,1,25,7,·,·,3,40,-1,-8
FGF22 binding,i,·,·,·,i,i,i,i,·,·
Beta cell apopt,7,3,1,4,19,·,·,5,-4,0
E coli growth,0.7,0.65,0.72,0.68,·,0.61,0.7,·,0.74,0.69

[11] COc1ccc(S(=O)(=O)N2CCc3ccccc32)cc1C(=O)OCC(=O)c1c(N)n(C)c(=O)n(C)c1=O
[12] CCOC(=O)CC1COCCN1Cc1cn[nH]c1-c1cc(OC)c(OC)c(OC)c1 (stereo not given)
[13] O=C(CCl)N1c2ccccc2OCC1c1ccccc1 (stereo not given)
[14] N#C/C(=C\c1ccc(N2CCOCC2)o1)C(=O)N1CCOCC1
[15] COc1ccc(S(=O)(=O)N2CCC(C(=O)NCC3CCCO3)CC2)cc1 (stereo not given)
[16] CCCCN1C(N)=NC[C@@H]1C(C)O (stereo not given in full)
[17] COc1ccc(S(=O)(=O)NNC(=O)c2cc3c4ccccc4n(C)c3s2)cc1
[18] COc1ccc(NC(=O)C23CC4CC(C2)CC(n2cnc(Br)n2)(C4)C3)c(C)c1
[19] Cc1ccc(NS(=O)(=O)c2cc(NC(=O)c3cc4c(s3)CCCC4)ccc2C)c(C)c1
[20] Cc1cccc(OCC(=O)N2CCC(c3ccccc3)C2)c1 (stereo not given)

Compound,11,12,13,14,15,16,17,18,19,20
AF4-AF9 inh,-2.3,-8.7,-6.3,·,·,-2.8,·,·,·,·
UCH37 DUB inh,0.9,2.9,6.3,15,6.2,-4.0,-3.8,1.8,2.1,1.8
Ecoli rRNA inh,2,9,-14,·,·,9,·,·,·,·
Ecoli rRNA inh OD600,-7,-3,-1,·,·,12,·,·,·,·
Ecoli rRNA inh RFP,0.1,-4.2,-0.2,·,·,-1.4,·,·,·,·
Bfl-1 A1 inh,-1.0,-0.1,-0.9,1.5,1.0,-0.1,0.0,-0.4,-0.7,-0.1
T cruzi inh,25,-10,3,1,-6,-10,-5,0,49,-3
FGF22 binding,i,i,i,·,·,i,·,·,·,·
Beta cell apopt,2,-2,3,10,-3,-3,-3,-9,28,·
E coli growth,0.7,0.69,0.67,·,0.72,0.79,0.66,0.7,0.71,0.62

[21] COCCNC(=S)NNC(=O)c1ccco1
[22] CC(=O)Nc1ccc2c(c1)OCCOCCOc1cc(NC(C)=O)ccc1OCCOCCOCCO2
[23] O=C(CSc1nc(C2CC2)nc2c1cnn2-c1ccccc1)Nc1c[nH]c(=O)[nH]c1=O
[24] Cc1ccc(NC2CCCN(C(=O)CCC3=NNC(=O)CC3)C2)cc1C (stereo not given)
[25] CCN(CC(=O)Nc1ccc(OC)cc1)C(=O)c1ccc(N2CCCC2=O)cc1
[26] COCCC1CCCCN1C(=O)c1ccc(OC)c(OC2CCN(C(C)=O)CC2)c1 (stereo not given)
[27] COc1ccccc1-c1nnc(SC(C)C(=O)N2CCOCC2)o1 (stereo not given)
[28] Cc1ccc(C(CC(=O)O)Nc2nc(N3CCOCC3)nc(N3CCOCC3)n2)cc1 (stereo not given)
[29] CCCNC(=O)c1cc(Cl)c(NC(=O)C2=C(C)OCCS2)cc1OC
[30] COC(=O)CCCCCC(CCC(=O)OC)NC(C)=O (stereo not given)

Compound,21,22,23,24,25,26,27,28,29,30
AF4-AF9 inh,·,6.4,0.3,2.7,0.7,-2.1,-0.9,-7.0,3.3,·
UCH37 DUB inh,4.8,2.3,-0.3,2.9,3.7,-0.4,4.2,0.0,1.5,3.7
Ecoli rRNA inh,·,21,3,-7,·,7,3,22,-3,·
Ecoli rRNA inh OD600,·,19,12,-2,·,17,1,6,-4,·
Ecoli rRNA inh RFP,·,1.3,0.2,-1.0,·,-1.2,-1.0,-6.4,1.1,·
Bfl-1 A1 inh,0.7,0.5,-0.2,0.1,0.9,0.2,0.3,2.2,-0.6,0.2
T cruzi inh,-12,-8,-8,-5,·,0,-9,2,-11,-9
FGF22 binding,·,i,i,i,i,i,i,i,i,·
Beta cell apopt,-3,·,·,1,-7,0,-11,-8,0,-5
E coli growth,0.67,0.65,0.68,0.65,0.65,0.68,0.68,0.68,0.67,0.69

[31] Cc1ccc(S(=O)(=O)NCC(=O)OCC(=O)Nc2ccc3c(c2)OCCO3)cc1
[32] COc1ccc(S(=O)(=O)Nc2cccc3c2O[C@@H](CN(C)CC2CC2)[C@@H](C)CN([C@@H](C)CO)C3=O)cc1
[33] NC(=O)CNC(=O)C1CCN(S(=O)(=O)c2ccc(-n3cnnn3)cc2)CC1
[34] CC1(c2ccccc2)NC(=O)N(CC(=O)N2CCN(S(=O)(=O)c3ccccc3[N+](=O)[O-])CC2)C1=O (stereo not given)
[35] CC(=O)NC1C(=O)N(C)c2ccc(Br)cc21 (stereo not given)
[36] CCOC(=O)c1cc2sccc2n1CC(=O)c1ccc2c(c1)OCCO2
[37] CCC(C(=O)Nc1ccc2c(c1)OCCO2)n1nnc2ccccc2c1=O (stereo not given)
[38] CN(Cc1ccccc1)C(=O)Cn1nc(C(F)(F)F)c2c1CCC2
[39] S=C(NCC1CC1)N/N=C/c1ccccc1Cl
[40] CC(C)(C)C(=O)C(Cc1ccccc1)n1cncn1 (stereo not given)

Compound,31,32,33,34,35,36,37,38,39,40
AF4-AF9 inh,-4.0,-12&-4.7,-8.1,-0.9,·,6.1,-2.5,·,5.0,·
UCH37 DUB inh,1.1,1.1,0.9,0.3,5.8,2.4,0.8,-3.0,·,-3.9
Ecoli rRNA inh,5,3&-6,6,4,·,-14,1,·,3,·
Ecoli rRNA inh OD600,6,8&0,11,-4,·,-12,-2,·,-11,·
Ecoli rRNA inh RFP,-1.6,0.5&7.0,9.0,-4.0,·,0.6,-0.1,·,8.1,·
Bfl-1 A1 inh,0.8,0.6,-0.6,-0.4,0.2,0.2,-0.4,0.9,0.5,1.6
T cruzi inh,·,·,-12,0,-7,2,-10,-22,-22,-12
FGF22 binding,i,i,i,i,·,i,i,·,i,·
Beta cell apopt,-9,4,-7,1,-5,2,-3,1,-8,-6
E coli growth,0.68,·,0.67,0.72,0.65,0.64,0.69,0.72,·,0.65

[41] COc1ccccc1N1CCN(CCCOc2ccc(F)cc2)CC1
[42] CN(CC(=O)N1CCCC1)S(=O)(=O)c1ccc(Cl)cc1
[43] COc1ccccc1OCC(=O)Nc1cc(Cl)ccc1N1CCCCC1
[44] CCn1c(CSc2n[nH]c(N)n2)nc2cc(C(=O)O)ccc21
[45] COCCN(C(=O)C1CC(=O)N(Cc2ccccc2)C1)c1nc(-c2ccc([N+](=O)[O-])cc2)cs1 (stereo not given)
[46] COCCn1nnnc1C(c1ccccc1)N1CCN(C(=O)c2ccco2)CC1 (stereo not given)
[47] COC(=O)c1ccc(C2C(C(=O)c3ccco3)=C(O)C(=O)N2CC2CCCO2)cc1 (stereo not given)
[48] CCCN(CC(=O)Nc1ccccc1C)C(=O)c1ccc2c(c1)OCO2
[49] N#Cc1cc(-c2ccccc2)nnc1Oc1ccccc1
[50] O=C(CNC(=O)C12CC3CC(CC(C3)C1)C2)NCc1ccccc1
[51] C/C(N)=C(/C#N)C(=O)COC(=O)c1ccccc1Oc1ccccc1

Compound,41,42,43,44,45,46,47,48,49,50,51
AF4-AF9 inh,·,·,-1.2,0.1,4.2,-6.3,-5.9,0.6,·,-6.7,0.6
UCH37 DUB inh,-0.7,3.1,-4.0,1.2,4.1,·,7.1,-0.8,4.4,0.0,1.7
Ecoli rRNA inh,·,·,7,19,-2,9,1,9,·,0,-27
Ecoli rRNA inh OD600,·,·,2,15,-23,4,3,3,·,1,-24
Ecoli rRNA inh RFP,·,·,25,62,-2.1,-3.2,-2.3,-0.7,·,1.6,-6.0
Bfl-1 A1 inh,-0.8,0.3,-0.7,-0.8,0.2,0.4,-0.5,-0.3,0.2,0.1,-0.6
T cruzi inh,-7,-11,·,-1,·,-8,-3,·,20,19,-8
FGF22 binding,·,·,i,i,i,i,i,i,·,i,i
Beta cell apopt,0,-4,-5,3,-1,-1,-5,-14,3,3,-6
E coli growth,0.6,0.7,0.63,0.7,0.66,·,0.7,0.66,0.74,0.61,0.73

# Screens as filed in PubChem.
